MARV entry inh = inhibitors of Marburg virus binding or cell entry; Marburg virus pseudotyped entry inhibition, cell reporter; control for the full effect not named in the record; about a third of the inactives were read at about 46 µM; actives 1.8% (n = 300,000); Potency, µM (top dose mostly 37.8 µM), without a hit: top-dose activity change, negative = inhibition, hits mostly inhibitors; active = well fitted inhibition curve with a large enough effect; inconclusive = small, poorly fitted or top-dose-only effect, or effect the other way; inactive = flat fitted curve, though single readings scatter; tested in HEK293 cells; about a fifth of its hits are not listed in these tables; also: % is scaled to controls: 0 for no effect and ±100 for the full control effect; luciferase read-out
LASV entry inh = inhibitors of Lassa virus binding or cell entry; Lassa virus pseudotype entry inhibition, cell reporter; control for the full effect not named in the record; AID 540256; actives 1.2% (n = 300,000); Potency, µM (series often up to 37.9 µM), for inactives: top-dose activity change, negative = inhibition, actives largely listed as inhibitors; active means well fitted inhibition curve with a large enough effect; inconclusive means small, poorly fitted or top-dose-only effect, or effect the other way; inactive means flat fitted curve, though single readings scatter; tested in HEK293 cells; also: % is scaled to controls: 0 for no effect and ±100 for the full control effect; nearly all actives have a fitted effect of over 50% in size; luciferase read-out
SARS PLP yeast = blocks SARS-CoV papain-like protease in a yeast assay; actives 0.19% (n = 330,000); S. cerevisiae expressing SARS-CoV PLpro, growth rescue; control for the full effect not named in the record; Potency, µM (series often up to 32.9 µM), without a hit: at the highest dose activity, positive = growth rescue; also: 0% is about no effect; nearly all actives have a fitted effect of over 55% in size; growth read by luminescence after 48 h
Cruzain inh Det = cruzain (T. cruzi) inhibition with detergent | P25779 | purified cruzain, Z-FR-AMC fluorescence, 0.01% Triton | Potency, µM, without a hit: max response, negative = inhibition, actives largely listed as inhibitors | actives 0.43% (n = 200,000); active = well fitted curve in the direction sought with a large enough effect; inconclusive = small, poorly fitted or top-dose-only effect, or another doubt; inactive = no such curve, though single readings can be large; an effect the other way counts as inactive or inconclusive;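 also: plate controls were neutral wells for no effect and buffer without enzyme for full effect; nearly all actives have a fitted effect of over 40% in size; top concentration of the series not given in the record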
Target sequence (P25779 123-467 limits assumed): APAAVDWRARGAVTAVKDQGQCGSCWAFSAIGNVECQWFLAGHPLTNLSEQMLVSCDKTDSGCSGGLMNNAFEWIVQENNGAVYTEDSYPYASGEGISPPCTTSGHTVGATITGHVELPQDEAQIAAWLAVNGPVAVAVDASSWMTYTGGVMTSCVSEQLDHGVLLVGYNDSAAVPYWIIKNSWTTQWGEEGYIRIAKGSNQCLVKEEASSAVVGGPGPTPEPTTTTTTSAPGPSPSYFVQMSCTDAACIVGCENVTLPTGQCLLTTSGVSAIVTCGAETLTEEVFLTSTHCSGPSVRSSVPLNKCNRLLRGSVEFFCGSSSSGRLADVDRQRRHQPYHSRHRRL
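Purified cruzain (1.5 nM final) was preincubated with compounds for 15 min at room temperature in 100 mM sodium acetate pH 5.5, 5 mM DTT, 0.01% Triton X-100. Reaction started with 2 uM Z-FR-AMC; AMC fluorescence change over 60 s gave activity.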
RE007 growth inh = less growth of the S. pombe RE007 Vpr strain | S. pombe RE007 Vpr strain, BacTiter-Glo ATP luminescence, 24 h; control for the full effect not named in the record | Potency, µM (highest dose often 92.2 µM), for the others: at the highest dose activity change, negative = less growth | actives 0.21% (n = 360,000); active = well fitted falling curve with a large enough effect; inconclusive = small, poorly fitted or top-dose-only effect; inactive = no such curve, though single readings can be large or run the other way;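 also: % is scaled to controls: 0 for no effect and ±100 for the full control effect; nearly all actives have a fitted effect of over 50% in size; the assay follows cell death caused by Vpr and the record does not say whether a fall means rescue or toxicity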
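Fission yeast strain RE007, carrying one chromosomally integrated HIV-1 vpr copy, was seeded at OD 0.01 in PMG+AL medium with 23 nL pinned compound. After 24 h at 30 °C and 99% humidity, viability was read by BacTiter-Glo luminescence.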
StopGo reporter = lowers the luciferase signal of an FMDV 2A StopGo reporter. human cells with a luciferase reporter of 2A StopGo recoding; control for the full effect not named in the record. Potency, µM (titrated, usually from 57.9 µM), for the others: at the top dose signal change, negative = less light. actives 1.2% (n = 410,000). AID 1159524; active = well fitted falling curve with a large enough effect; inconclusive = small, poorly fitted or top-dose-only effect; inactive = no such curve, though single readings can be large or run the other way; tested in HEK293T cells; also: % is scaled to controls: 0 for no effect and ±100 for the full control effect; nearly all actives have a fitted effect of over 45% in size; luciferase light after 4 h
NS1 inh = inhibitors of influenza NS1 protein function | S. cerevisiae slowed by influenza A NS1, growth recovery by OD600 | Potency, µM (titrated, usually from 46.1 µM), inactives show top-dose activity, positive = more growth | actives 0.4% (n = 270,000); also: actives are rising curves; nearly all actives have a fitted effect of over 50% in size
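OD600 was taken as the measure of yeast growth restored by compound in an NS1-expressing S. cerevisiae strain. Cells had been washed out of glucose medium and diluted 1:100 into galactose -URA medium, pH 6.0.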
Cruzain noTriton = inhibitors of Trypanosoma cruzi cruzain without detergent; Potency, µM, for the others: max response, negative = inhibition, actives largely listed as inhibitors; purified cruzain, Z-FR-AMC fluorescence, no detergent; actives 2.3% (n = 200,000); active = well fitted curve in the direction sought with a large enough effect; inconclusive = small, poorly fitted or top-dose-only effect, or another doubt; inactive = no such curve, though single readings can be large; an effect the other way counts as inactive or inconclusive;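 also: plate controls were enzyme without inhibitor for no effect and buffer without enzyme for full effect; nearly all actives have a fitted effect of over 40% in size; top concentration of the series not given in the record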
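Detergent-free condition (0.00005% Triton X-100) in acetate buffer pH 5.5 with DTT. 1.5 nM enzyme and compound were pre-mixed 15 min, then 2 uM Z-FR-AMC substrate added; reaction progress from fluorescence change between first and third reads (60 s).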
* = called active by the depositor; u = inconclusive; x = not tested or not shown; & = joins results of further samples; [ ] = remark or other dose. Unless noted, calls follow the shape of the dose curve; as a rule, active means well fitted rising curve with a large enough effect; inconclusive means small, poorly fitted or top-dose-only effect; inactive means no such curve, though single readings can be large or run the other way. Potency is read from the fitted curve at half-maximal effect. Random draw from the library, and some 4.5% of all compounds hit somewhere here.

SMILES | MARV entry inh | LASV entry inh | SARS PLP yeast | Cruzain inh Det | RE007 growth inh | StopGo reporter | NS1 inh | Cruzain noTriton
O=C(COC(=O)c1ccccc1)NC1CCCCCC1 | 15%[46.1 µM] | -1%[46.1 µM] | -3% | x | -7% | 32%[activator] | x | x
O=c1c(Sc2ccccc2)c(C(F)(F)F)[nH]n1-c1ccccc1 | u | 6% | -6% | -4.2% | 14%[3.69 µM] | u | -67% | -5%
N#CCCN(C(=O)COC(=O)c1ccc2c(=O)n3c(nc2c1)CCC3)c1ccc(F)cc1 | -24% | 9% | -3% | x | 14% | -14% | 7% | x
COc1cccc(CNC(=O)c2ccc(COc3ccccc3)cc2)c1 | 5% | -19% | 3% | x | 1% | 11% | 6% | x
N#CC1=C(SCc2ccccc2)NC(=O)CC1c1ccco1 (stereo not drawn) | -4% | -18% | 8% | -0.4% | 0% | -10% | -48% | -2%
Cc1cccc(NC(=O)[C@H](Cc2ccccc2)NC(=O)OCc2ccccc2)c1 | -16% | u | 7% | -0.9% | -6% | -12% | -2% | 7%
CC(=O)c1ccc(N(CC(=O)NC2CCCC2)C(=O)CNC(=O)c2cccs2)cc1 | 1%[46.1 µM] | -18%[46.1 µM] | 2% | x | -8% | 3% | 0% | x
CCCCSc1oc(-c2ccco2)nc1S(=O)(=O)c1ccccc1 | u | -22%[46.1 µM] | -9% | x | -3% | -9% | -27% | x
O=C(CN1C(=O)NC(c2ccc(F)cc2)C1=O)NC1CCCCC1 (stereo not drawn) | 12% | 8% | -6% | x | -22% | -21% | x | x
CC(NC(=O)c1cc2ccccc2o1)C(=O)O (stereo not drawn) | 4%[46.1 µM] | 1% | 1% | -5.1% | 19% | -2% | 11% | -2%
O=C(Nc1nc(-c2ccc(Cl)s2)cs1)c1ccccc1 | -21%[46.1 µM] | 1% | -8% | -0.6% | -9% | -17% | -7% | -3%
COC(=O)CCC(=O)CN | -4%&-4%&-4% | 6% | -6% | 1.8% | 5%[18.4 µM] | -18% | -5% | 12%
CCN(CC)c1ccc(/C=N/NC(=O)CNC(=O)C2COc3ccccc3O2)c(O)c1 (stereo not drawn) | 4.5µM* | 11µM* | u | x | 2% | -7% | -12% | x
CCOc1ccc(N(CC(=O)NCc2ccco2)C(=O)CCC(=O)Nc2nccs2)cc1 | u | -5% | 1% | x | 17% | 13% | -5% | x
CCCn1c(N)c(C(=O)CSc2nnc(C3CC3)n2Cc2ccccc2)c(=O)[nH]c1=O | -4% | 21% | -4% | 1.0% | -23% | -30% | 8% | -2%
O=C(C=Cc1cccc(O)c1)c1ccccc1O | 26%[46.1 µM] | u | x | x | 25µM* | u | x | x
COc1ccccc1OCc1nnc(SCC(=O)N2CCCCC2)o1 | 2%[46.1 µM] | x | 2% | x | -4% | 9% | -12% | x
CCOC(=O)c1ccccc1NC(=O)Cn1c(=O)n(-c2ccc(CC)cc2)c(=O)c2c(C)c(C(=O)N(C)C)sc21 | x | 0%[46.1 µM] | x | 2.5% | x | -11% | x | 7%
CC(C)NC(=O)c1cc(-n2cnnc2)ccc1Cl | 13% | 2% | -12% | 3.4% | -1% | -2% | 9% | 1%
CCOC(=O)N1CCN(C(=O)CN(c2ccc(OCc3ccccc3)cc2)S(C)(=O)=O)CC1 | -19% | u | -8% | -0.9% | 2% | -23% | -12% | u
Cc1ccc(-c2cn3cccnc3n2)cc1NC(=O)c1ccc(Br)o1 | -9% | u | -2% | u | -1% | 14% | -47% | u
Cc1oc(-c2ccoc2)nc1CN(CC1CCC(=O)N1)C(C)C (stereo not drawn) | u | 13%[46.1 µM] | -1% | x | -9% | -11% | 2% | x
COc1ccc(C2c3c(n[nH]c3C)CC(C)(O)C2C(C)=O)cc1OC (stereo not drawn) | u | 5% | 0% | 4.9% | -2% | 1% | 3% | -4%
Cc1nc(SCc2ccccc2C#N)n[nH]1 | x | x | 6% | x | -4% | 7% | -1% | x
CN(C)S(=O)(=O)c1cc(NC(=O)CN2CCOCC2)ccc1Cl | u | u | 3% | x | 19% | 11% | x | x
CCOC(=O)N1CCC(NC(=O)CN2C(=O)C(CC)Oc3ccc(C)cc32)CC1 (stereo not drawn) | 6% | 0% | u | 2.3% | -15% | x | -19% | 12%
CCN1C(=O)c2ccccc2S(=O)(=O)c2ccc(C(=O)NCc3ccccc3)cc21 | u | -13%[46.1 µM] | x | -0.1% | x | -6% | x | 2%
N#Cc1nc(-c2ccc(Cl)cc2)oc1NCC1CCCO1 (stereo not drawn) | u | 11%[46.1 µM] | -2% | x | 9% | -7% | -12% | x
COc1ccccc1C(=O)N(C1=NC(C)CS1)c1ccc(Cl)cc1 (stereo not drawn) | -6%[46.1 µM] | 14%[46.1 µM] | u | x | 15% | -22% | 5% | x
Cc1cc(C)n2nc(SCC(=O)c3ccccc3)nc2n1 | u | 2% | -3% | -4.2% | -12% | x | -4% | -13%
O=c1[nH]c2cc3c(cc2cc1C(c1nnnn1CC1CCCO1)N1CCCCCC1)OCCO3 (stereo not drawn) | u | -19% | -2% | -12% | 4% | 15% | -4% | -11%
CCc1ccc(C(=O)c2cnc3ccc(F)cc3c2S(=O)(=O)c2ccccc2)cc1 | 0%[46.1 µM] | x | x | -2.0% | x | u | x | -29%
O=C(NCCO)c1cccc(Nc2nc(-c3ccccc3)c3cc(Cl)ccc3n2)c1 | u | u | -24% | -13% | 6% | u | -7% | u
O=C(Nc1ccc(N2CCCC2)cc1)c1cc2ccccc2o1 | x | x | 1% | x | -1% | 70%[activator] | 24% | x
CCc1ccc(NC(=O)N(Cc2c[nH]c3ccccc23)C2CCCCC2)cc1 | -28%[46.1 µM] | u | x | -11% | x | 39%[activator] | x | 6%
CCOc1ccc(N(CC(=O)NCCOc2ccc(C)cc2)S(=O)(=O)c2ccccc2)cc1 | u | -1% | -6% | x | 7% | -15% | 16% | x

Profiles, quoted from the list. Order of values: MARV entry inh | LASV entry inh | SARS PLP yeast | Cruzain inh Det | RE007 growth inh | StopGo reporter | NS1 inh | Cruzain noTriton
CCN1C(=O)c2ccccc2S(=O)(=O)c2ccc(C(=O)NCc3ccccc3)cc21 is entered as u | -13%[46.1 µM] | x | -0.1% | x | -6% | x | 2%
O=C(Nc1ccc(N2CCCC2)cc1)c1cc2ccccc2o1 is entered as x | x | 1% | x | -1% | 70%[activator] | 24% | x
CCc1ccc(C(=O)c2cnc3ccc(F)cc3c2S(=O)(=O)c2ccccc2)cc1 is entered as 0%[46.1 µM] | x | x | -2.0% | x | u | x | -29%
Cc1cc(C)n2nc(SCC(=O)c3ccccc3)nc2n1 is entered as u | 2% | -3% | -4.2% | -12% | x | -4% | -13%
CCOc1ccc(N(CC(=O)NCCOc2ccc(C)cc2)S(=O)(=O)c2ccccc2)cc1 is entered as u | -1% | -6% | x | 7% | -15% | 16% | x

Arranged by heavy-atom count (high to low): three of the compounds above
SMILES | MARV entry inh | LASV entry inh | SARS PLP yeast | Cruzain inh Det | RE007 growth inh | StopGo reporter | NS1 inh | Cruzain noTriton
CCOc1ccc(N(CC(=O)NCCOc2ccc(C)cc2)S(=O)(=O)c2ccccc2)cc1 | u | -1% | -6% | x | 7% | -15% | 16% | x
CCN1C(=O)c2ccccc2S(=O)(=O)c2ccc(C(=O)NCc3ccccc3)cc21 | u | -13%[46.1 µM] | x | -0.1% | x | -6% | x | 2%
Cc1cc(C)n2nc(SCC(=O)c3ccccc3)nc2n1 | u | 2% | -3% | -4.2% | -12% | x | -4% | -13%

Additional structures.
SMILES | MARV entry inh | LASV entry inh | SARS PLP yeast | Cruzain inh Det | RE007 growth inh | StopGo reporter | NS1 inh | Cruzain noTriton
O=C(c1ccc(S(=O)(=O)N2CCOCC2)cc1)N1CCc2ccccc21 | 17%[46.1 µM] | 7%[46.1 µM] | 1% | x | -6% | -14% | 15% | x
O=c1cccccc1NN=C1CCCCCC1 | 2% | 17% | 0% | x | -8% | 18% | -4% | x
CC1CCCCN1C(=O)c1cc(S(=O)(=O)N2CCCCC2)c[nH]1 (stereo not drawn) | x | x | 3% | x | 11% | -16% | 12% | x
Cc1ccc(S(=O)(=O)Cc2ccc(C(=O)NC3CCCCCC3)o2)cc1 | x | x | -3% | x | 31% | -16% | -16% | x
COc1cc(/C=N/NC(=O)NC2CCCCC2)cc(OC)c1O | x | x | 0% | x | -14% | -8% | 7% | x
COc1cc(CN2CCCCCC2)cc(Br)c1O | -10%[46.1 µM] | 27%[46.1 µM] | -3% | x | 3% | -5% | 0% | x
CC[C@]12c3[nH]c4ccc(OC)cc4c3CCN1C(=O)C(CC(=O)NCCCN(C)C)C[C@@H]2C(=O)N1CCN(C(=O)C2CC2)CC1 (stereo partly drawn) | -4% | x | 7% | x | -16% | -13% | x | x
CC(=O)Nc1ccc(S(=O)(=O)NNc2cccc(C)c2)cc1 | 17%[46.1 µM] | 16%[46.1 µM] | -2% | x | -14% | 9% | -2% | x
O=C(N/N=C/c1ccc[nH]1)c1ccc([N+](=O)[O-])cc1 | u | 18% | -21% | -2.1% | 12% | 19% | 3% | -17%
CC(C)c1ccc2oc(-c3ccc(NC(=O)c4cc5ccccc5o4)cc3)nc2c1 | x | u | x | -1.8% | x | u | x | 15%
CC(=O)c1ccc(NC(=O)c2c(C)nn(-c3ccccc3)c2Cl)cc1 | u | 1% | -1% | x | 3% | 0% | 1% | x
COc1ccc(S(=O)(=O)N(C)CC(=O)N2CCN(C)CC2)cc1Cl | x | x | 1% | x | 2% | 10% | 9% | x
COC(=O)c1ccccc1NC(=O)C1CCCN(S(=O)(=O)c2ccc(OC)cc2)C1 (stereo not drawn) | u | -10% | -8% | -1.9% | -3% | u | 2% | 10%
O=C(CCN1CCN(c2ccccc2)CC1)N/N=C/c1ccc(O)c(O)c1O | x | x | 3% | x | 7% | -26% | 16% | x
CCN(CC)C(=O)CN1CCN(Cc2ccc3c(c2)OCO3)CC1 | -3%[46.1 µM] | 0% | -2% | x | -5% | 8% | -2% | x

Screening results deposited in PubChem by National Center for Advancing Translational Sciences (NCATS).
